High-throughput results as filed in PubChem.
NS1 inh: qHTS Assay for Inhibitors of Influenza NS1 Protein Function; S. cerevisiae slowed by influenza A NS1, growth recovery by OD600; 270,000 compounds, 0.4% hits; AID 2326, 2010; Potency, µM (doses to about 46.1 µM), inactives show top-dose activity, positive = more growth; also: actives are rising curves; nearly all actives have a fitted effect of over 50% in size
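Compounds were scored for reversing the slow growth caused by influenza A NS1 in S. cerevisiae, measured by optical density at 600 nm. Assay medium contained 2% galactose at pH 6.0; NS1-free yeast of the same strain were the positive control.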
RE007 growth inh: qHTS Assay for Inhibitors of the HIV-1 protein Vpr; S. pombe RE007 Vpr strain, BacTiter-Glo ATP luminescence, 24 h; control for the full effect not named in the record; Potency, µM (doses to about 92.2 µM), inactives show top-dose activity change, negative = less growth; 360,000 compounds, 0.21% hits; AID 651644, 2012; active = well fitted falling curve with a large enough effect; inconclusive = small, poorly fitted or top-dose-only effect; inactive = no such curve, though single readings can be large or run the other way;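 also: % is scaled to controls: 0 for no effect and ±100 for the full control effect; nearly all actives have a fitted effect of over 50% in size; the assay follows cell death caused by Vpr and the record does not say whether a fall means rescue or toxicity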
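Fission yeast RE007 carrying one integrated HIV-1 vpr copy, seeded at OD 0.01 in PMG+AL medium with 23 nL pinned compound. Grown 24 h at 30 degrees; viability read by BacTiter-Glo luminescence after 5 min.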
SARS PLP yeast: qHTS of Yeast-based Assay for SARS-CoV PLP; S. cerevisiae expressing SARS-CoV PLpro, growth rescue; control for the full effect not named in the record; Potency, µM (top dose mostly 32.9 µM), without a hit: top-dose activity, positive = growth rescue; 330,000 compounds, 0.19% hits; also: 0% is about no effect; nearly all actives have a fitted effect of over 55% in size; growth read by luminescence after 48 h
Cruzain inh Det: qHTS Assay for Promiscuous and Specific Inhibitors of Cruzain (with detergent); Cruzipain (Trypanosoma cruzi), P25779; Potency, µM, without a hit: max response, negative = inhibition, usual class: inhibitors; purified cruzain, Z-FR-AMC fluorescence, 0.01% Triton; 200,000 compounds, 0.43% hits; active = well fitted curve in the direction sought with a large enough effect; inconclusive = small, poorly fitted or top-dose-only effect, or another doubt; inactive = no such curve, though single readings can be large; an effect the other way counts as inactive or inconclusive;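 also: plate controls were neutral wells for no effect and buffer without enzyme for full effect; nearly all actives have a fitted effect of over 40% in size; top concentration of the series not given in the record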
Target sequence (P25779 123-467 limits assumed): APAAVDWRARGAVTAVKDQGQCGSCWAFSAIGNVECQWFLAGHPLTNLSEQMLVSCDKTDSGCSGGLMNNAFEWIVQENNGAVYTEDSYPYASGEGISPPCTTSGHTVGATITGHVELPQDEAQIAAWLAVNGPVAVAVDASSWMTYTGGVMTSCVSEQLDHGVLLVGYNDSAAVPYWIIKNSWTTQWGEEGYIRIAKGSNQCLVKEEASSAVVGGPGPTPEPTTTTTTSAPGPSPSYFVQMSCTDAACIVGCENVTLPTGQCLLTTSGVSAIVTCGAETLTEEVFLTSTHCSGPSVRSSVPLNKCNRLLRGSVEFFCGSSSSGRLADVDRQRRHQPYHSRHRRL
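Cysteine protease activity tested under reducing, mildly acidic conditions (100 mM sodium acetate pH 5.5, 5 mM DTT) plus 0.01% Triton X-100. Cruzain 1.5 nM; substrate Z-FR-AMC 2 uM; 15 min compound preincubation at room temperature.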
Lassa entry inh: qHTS for Inhibitors of binding or entry into cells for Lassa Virus | Lassa virus pseudotype entry inhibition, cell reporter; control for the full effect not named in the record | Potency, µM (doses to about 37.9 µM), for the others: at the top dose activity change, negative = inhibition, most hits filed as inhibitors | 300,000 compounds, 1.2% hits | AID 540256, 2011; active means well fitted inhibition curve with a large enough effect; inconclusive means small, poorly fitted or top-dose-only effect, or effect the other way; inactive means flat fitted curve, though single readings scatter; tested in HEK293 cells; also: % is scaled to controls: 0 for no effect and ±100 for the full control effect; nearly all actives have a fitted effect of over 50% in size; luciferase read-out
Cruzain inh noDet: qHTS Assay for Promiscuous and Specific Inhibitors of Cruzain (without detergent) | Cruzipain (Trypanosoma cruzi), P25779 | purified cruzain, Z-FR-AMC fluorescence, no detergent | Potency, µM, for inactives: max response, negative = inhibition, most hits filed as inhibitors | 200,000 compounds, 2.3% hits | AID 1476, 2009; active = well fitted curve in the direction sought with a large enough effect; inconclusive = small, poorly fitted or top-dose-only effect, or another doubt; inactive = no such curve, though single readings can be large; an effect the other way counts as inactive or inconclusive;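 also: plate controls were enzyme without inhibitor for no effect and buffer without enzyme for full effect; nearly all actives have a fitted effect of over 40% in size; top concentration of the series not given in the record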
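Purified cruzain at 1.5 nM, pre-incubated 15 min with compound at room temperature in 100 mM sodium acetate pH 5.5, 5 mM DTT, 0.00005% Triton X-100. Reaction started with 2 uM Z-FR-AMC; AMC fluorescence increase over 60 s gives rate.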
2A StopGo: High Throughput Screening for Foot and Mouth Disease Virus Antivirals | human cells with a luciferase reporter of 2A StopGo recoding; control for the full effect not named in the record | AID 1159524, 2015 | 410,000 compounds, 1.2% hits | Potency, µM (titrated, usually from 57.9 µM), for inactives: top-dose signal change, negative = less light; active = well fitted falling curve with a large enough effect; inconclusive = small, poorly fitted or top-dose-only effect; inactive = no such curve, though single readings can be large or run the other way; tested in HEK293T cells; also: % is scaled to controls: 0 for no effect and ±100 for the full control effect; nearly all actives have a fitted effect of over 45% in size; luciferase light after 4 h
Marburg entry inh: qHTS for inhibitors of binding or entry into cells for Marburg Virus. Potency, µM (top dose mostly 37.8 µM), without a hit: top-dose activity change, negative = inhibition, usual class: inhibitors. Marburg virus pseudotyped entry inhibition, cell reporter; control for the full effect not named in the record; about a third of the inactives were read at about 46 µM. 300,000 compounds, 1.8% hits; active = well fitted inhibition curve with a large enough effect; inconclusive = small, poorly fitted or top-dose-only effect, or effect the other way; inactive = flat fitted curve, though single readings scatter; tested in HEK293 cells; about a fifth of its hits are not listed in these tables; also: % is scaled to controls: 0 for no effect and ±100 for the full control effect; luciferase read-out
The depositor's hits bear a star; ? = inconclusive; / = not tested or not shown; & = joins results of further samples; [ ] = dose if it differs, or a comment. Unless noted, calls follow the shape of the dose curve; as a rule, active means well fitted rising curve with a large enough effect; inconclusive means small, poorly fitted or top-dose-only effect; inactive means no such curve, though single readings can be large or run the other way. Potency is read from the fitted curve at half-maximal effect. This is a random part of the collection; about 4.7% have a hit in one of these screens.

Each structure is followed by: NS1 inh | RE007 growth inh | SARS PLP yeast | Cruzain inh Det | Lassa entry inh | Cruzain inh noDet | 2A StopGo | Marburg entry inh
Cc1cccc(C(=O)NCc2nnc(SCc3ccc(F)cc3)n2C)c1
  2% | -18% | 1% | / | / | / | 4% | /
Cc1ccc(C(=O)NCc2ccc3c(c2)OCO3)cc1S(=O)(=O)N1CCCCC1
  -63% | 6% | 0% | 1.8% | ? | -4% | 5% | -20%&-20%
Cc1ccc(NC(=O)c2nc(S(=O)(=O)Cc3ccccc3)ncc2Cl)cc1
  -101% | -8% | -18% | / | -17% | / | 28µM* | ?
CCc1ccc(C2=NN(c3ccc(S(N)(=O)=O)cc3)C(c3ccc(F)cc3)C2)cc1 (stereo not given)
  -10% | -9% | -19% | 10% | 7.9µM* | -9% | -10% | ?
Cc1cccc(C)c1NC(=S)N=Nc1c(O)n(C)c2ccc(S(=O)(=O)N3CCOCC3)cc12
  5% | 0% | 0% | -9.6% | 1% | ? | -10% | -10%
O=C(NNc1cc(Cl)ccc1Cl)c1cccnc1Cl
  / | 48% | -2% | / | 3%[46.1 µM] | / | 11% | ?
COc1ccc(NC(=O)c2ccc(C(=O)c3cc(OC)ccc3OC)cc2)cc1
  5% | 14% | -1% | 5.3% | -22% | -20% | -9% | 9%
C#CCOCCOCCOCCNc1nc(N2CCN(C(=O)C([C@@H](C)CC)n3cc(C(N)CO)nn3)CC2)nc(N2CCN(C(=O)[C@H](CCC(=O)O)n3cc(C(N)CC(C)C)nn3)CC2)n1 (stereo not given in full)
  4% | 3% | 0% | / | / | / | 12% | /
O=C(CCNC(=O)C1CCN(S(=O)(=O)c2ccccc2)CC1)NCc1cccc(C(F)(F)F)c1
  -5% | 2% | 4% | / | / | / | -19% | /
O=C(NCC1CC1)c1ccccc1Cl
  6% | 11% | 1% | / | / | / | -16% | /
COc1ccc(C(=O)Nc2ccc(-c3nc4ccccc4s3)c(Cl)c2)cc1Cl
  / | / | / | -2.8% | ? | ? | 39%[activator] | 23%[46.1 µM]
Cc1cc(C)nc(SCNC(=O)c2ccc(Cl)cc2)n1
  -12% | 9% | 5% | 3.9% | 21% | 2% | 4% | -1%
CC(NC(=O)CN1C(=O)NC(C)(C2CC2)C1=O)c1ccc(F)cc1 (stereo not given)
  / | -3% | -2% | / | 4% | / | -10% | 3%[46.1 µM]
CCCCCNC(=O)c1ccc2c(=O)n(CC3CCCO3)c(=O)[nH]c2c1 (stereo not given)
  2% | 12% | ? | -1.9% | 0% | 5% | -17% | -12%
O=C(CCc1ccncc1)N1CCCC(Nc2ccc(F)cc2)C1 (stereo not given)
  17% | 2% | 13% | / | 0%[46.1 µM] | / | -3% | 10%[46.1 µM]
CCCCS(=O)(=O)N1CCN(S(=O)(=O)c2ccc(Cl)s2)CC1
  -3% | 5% | -4% | / | / | / | -16% | /
COc1ccc(N2CCN(C3CC(=O)N(c4ccc5c(c4)OCCO5)C3=O)CC2)cc1 (stereo not given)
  -6% | 14% | -12% | 9.1% | 15%[14.3 µM] | -1% | 0% | 9%
O=C(/C=C/c1cccs1)N1CCCCC1
  -2% | 6% | 1% | / | 7%[46.1 µM] | / | 36%[activator] | ?
Cc1[nH][nH]c(=O)c1C(c1ccc(O)c([N+](=O)[O-])c1)c1c(C)[nH][nH]c1=O
  1% | / | 15% | 2.9% | 18% | 2% | 0% | 0%
S=C1NCCOCCNC(=S)NCCOCCOCCOCCN1
  9% | -11% | 8% | -1.5% | -7% | -5% | -24% | 10%
Cc1noc(NS(=O)(=O)c2ccc(NC(=O)CSc3nc4ccccc4[nH]3)cc2)c1C
  -15% | 13% | -6% | -3.5% | 13% | -21% | / | 20%
Clc1ccc(Nc2cc(-c3ccccc3)nc3ncnn23)cc1
  1% | 10% | 0% | / | ? | / | -9% | -7%[46.1 µM]
COc1ccc(OC)c(NC(=O)c2c(NCc3cccs3)sc3c2CCCC3)c1
  / | / | / | -16% | ? | -3% | 0% | /
Cc1ccc(CN(Cc2cc3cccc(C)c3[nH]c2=O)C(=O)N(C)C)cc1
  -14% | 31% | 2% | -0.2% | -13% | 10% | ? | -7%
COc1ccccc1C(=O)NCCC(=O)N1CC=C(c2ccccc2)CC1
  / | -2% | 0% | / | 0% | / | 0% | -11%
C=CCNC(=O)c1onc(CSc2ccccc2CC)c1C(=O)O
  28% | -1% | 6% | -1.1% | / | 2% | -18% | /
CCc1ccc(C2c3c(-c4ccccc4)n[nH]c3C(=O)N2c2ccc(C(=O)O)cc2)cc1 (stereo not given)
  / | / | / | -29% | -3%[46.1 µM] | 22% | -23% | -4%[46.1 µM]
Cc1noc(C)c1S(=O)(=O)N1CCN(C(c2ccccc2)c2ccc(Cl)cc2)CC1 (stereo not given)
  22% | 9% | -5% | -0.6% | / | ? | -27% | 0%
CCOc1ccc(N/C(N)=N/c2nc(C)c(C)c(=O)[nH]2)cc1
  1% | 4% | -1% | / | -2%[46.1 µM] | / | -15% | 3%[46.1 µM]
Cc1ccc(S(=O)(=O)N(CC(=O)N2CCN(c3ccc(F)cc3)CC2)C2CCCCC2)cc1
  4% | 23% | -10% | 1.1% | ? | 5% | -3% | ?
O=C(COC(=O)CSCC(=O)N1CCCCC1)NCc1ccc(F)cc1
  2% | -7% | 5% | 1.9% | 5% | -6% | -6% | -25%[46.1 µM]
Cn1ccnc1-c1nc2ccccc2[nH]c1=O
  -9% | -11% | 1% | -6.8% | 1% | -10% | / | 4%
CC1CN(C(=O)C2(C)CC2(Br)Br)CC(C)O1 (stereo not given)
  -4% | -8% | 20% | 0.8% | 5% | 0% | -2% | 0%
COc1cc(N)c2ncsc2c1
  / | 8% | / | / | -13% | / | -20% | -3%
C=CCc1cccc(/C=N/NC(=O)c2ccc3nc[nH]c3c2)c1O
  -13% | 5% | ? | / | / | / | 15% | /
O=C(COc1nncc2ccccc12)Nc1ccc(F)c(F)c1
  3% | 21% | 0% | / | ? | / | -11% | 4%[46.1 µM]
CCCN(CCC)CCCOC(=O)c1ccc(Cl)cc1Cl
  -3% | 8% | 3% | 3.7% | ? | 0% | -21% | ?
Cc1c(C(C)(C)C)sc(=NC(=O)c2ccccc2O)n1C
  -6% | -4% | -2% | / | 10%[46.1 µM] | / | -14% | ?
CCOc1ccc(-c2csc(NNC3=NCCCCC3)n2)cc1
  / | 23% | 0% | / | 26% | / | -26% | ?
CCOc1ccc2oc(C(=O)NC(C)(C)CC)c(C)c2c1
  / | 4% | -5% | / | ? | / | 27% | ?
CC/C(=N\NC(=O)CCC(=O)NCc1ccccc1)c1ccc(O)cc1
  2% | 11% | 0% | / | ? | / | -6% | -1%[46.1 µM]
C/C(=C\c1ccccc1)C(=O)NCCc1ccccc1
  -10% | 20% | 3% | / | ? | / | 20% | ?
CC(=O)N1CCc2cc(S(=O)(=O)NC(Cc3ccccc3)C(=O)NC3CCCCCC3)ccc21 (stereo not given)
  12% | -4% | 6% | -4.3% | -24% | -8% | / | -25%
CCc1cccc(C)c1NC(=O)c1ccc2c(c1)CCN2S(=O)(=O)CC
  / | / | / | -3.6% | 27%[46.1 µM] | -8% | -24% | -3%[46.1 µM]
COc1cccc(CNC(=O)c2cc(C)nc3c2c(C)nn3-c2ccc(C)cc2)c1
  / | / | / | -13% | -15%[46.1 µM] | 22% | -12% | /
COc1ccccc1-c1nnc(C2CCN(S(=O)(=O)c3cccc([N+](=O)[O-])c3)CC2)o1
  -7% | -18% | 7% | / | / | / | ? | /
COc1cccc(NC(=O)C2CCN(C(=O)NC3CCCCC3)CC2)c1
  2% | 6% | 2% | / | 1% | / | 17% | -3%[46.1 µM]
CCOC(=O)c1cccc(NC(=O)Cc2ccc(NC(=O)N3CCCCc4ccccc43)cc2)c1
  / | / | / | -4.5% | -15%[46.1 µM] | 0% | 0% | /
COc1ccccc1/C=N/NC(=O)C(=O)NCc1cccnc1
  3% | -3% | 1% | / | 5% | / | -1% | -1%[46.1 µM]
CCOc1ccc(CCNC(=O)c2cc3cccc4c3n2CCS4)cc1
  / | / | / | -10% | ? | -30% | -19% | /
Cc1nnc(SCC(=O)Nc2ccc([N+](=O)[O-])cc2)n1C
  -20% | 2% | 10% | / | / | / | -1% | /
COc1ccccc1CNc1nc2ccccc2n1CCN1CCCCC1
  -2% | -9% | 4% | 3.7% | -8% | 9% | -19% | ?
COc1cccc(C2NC(=O)NC(C)=C2C(=O)Nc2ccc(C)cc2)c1OC (stereo not given)
  -4% | -2% | -5% | -0.2% | -23% | 0% | / | -3%
CCCNS(=O)(=O)c1ccc(C(=O)NCC2CCCO2)cc1 (stereo not given)
  -3% | 7% | 12% | 2.2% | -1% | -7% | / | 7%
O=C(Nc1ccccc1)C(Cl)C(=O)c1ccccc1 (stereo not given)
  -136% | 7.1µM* | -25% | / | / | / | 68%[activator] | /
COc1ccc(-n2ncc3c(=O)n(CC(=O)Nc4ccc5c(c4)OCCO5)cnc32)cc1
  8% | 7% | 0% | / | ? | / | 4% | ?
COc1ccc(-c2nc(-c3ccccc3)nc(N3CCN(C)CC3)c2C#N)cc1
  1% | -7% | 8% | -5.5% | -29% | -7% | 4% | ?
Cc1cc(C)cc(-n2ccn(CC(=O)Nc3ccccc3C(F)(F)F)c(=O)c2=O)c1
  / | / | / | -3.8% | 0%[46.1 µM] | -7% | -8% | /
